FGF22 binding: binders of recombinant human FGF22 by thermal shift. Q9HCT0. SYPRO orange fluorescence; percent of sucrose octasulfate shift, DMSO zero. calls only at 9.99 µM. 1.5% of 340,000 active. AID 651658;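 active means melting point raised past a set limit in the mean and every replicate; inconclusive means no clear call; three in four hits are not shown here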
MLL AF4-AF9 inh: blocks AF4 peptide binding to human AF9. AlphaScreen, biotin-AF4 peptide binding to FLAG-AF9. inhibition, % at 10 µM. 0.47% of 350,000 active;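 active means every replicate reaching a set inhibition limit, whatever the replicate mean, cut at about 25% in these data; inconclusive means mean inhibition reaches that limit but some replicates miss it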;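 further: 0% = plate neutral control median and 100% = total signal loss; the record names both 10 and 1 µM as test concentration; the first replicate is given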
Target sequence (P42568 whole entry, looked up): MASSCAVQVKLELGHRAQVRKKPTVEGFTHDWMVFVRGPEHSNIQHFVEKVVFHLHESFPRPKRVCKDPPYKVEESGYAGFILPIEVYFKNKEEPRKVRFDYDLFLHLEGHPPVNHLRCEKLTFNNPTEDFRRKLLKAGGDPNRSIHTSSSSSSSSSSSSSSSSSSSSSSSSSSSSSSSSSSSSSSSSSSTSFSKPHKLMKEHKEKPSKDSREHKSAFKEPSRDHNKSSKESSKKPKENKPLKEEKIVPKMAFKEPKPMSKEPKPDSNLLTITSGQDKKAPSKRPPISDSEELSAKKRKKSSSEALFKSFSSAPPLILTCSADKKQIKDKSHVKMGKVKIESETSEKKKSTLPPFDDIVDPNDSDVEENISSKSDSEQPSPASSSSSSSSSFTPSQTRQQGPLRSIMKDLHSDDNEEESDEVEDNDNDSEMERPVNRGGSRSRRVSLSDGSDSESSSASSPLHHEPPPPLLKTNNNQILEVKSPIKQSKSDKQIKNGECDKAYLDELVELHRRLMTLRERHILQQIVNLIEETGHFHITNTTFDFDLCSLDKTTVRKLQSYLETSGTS
HNF4A DNA FP: change in binding of human HNF4 alpha to DNA; 0.3% of 360,000 active; HNF4a-FITC DNA binding, fluorescence polarization, 1 h; activity change, % at 10 µM; P41235; AID 1224865; in the data active means activity change above about 30%, passing the limit was not always enough;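 further: controls were the assay level and a saturating level of protein; the project sought stronger binding though the title names inhibitors; some compounds called inactive have numbers as strong as hits; positive values seem to mean higher polarization but the record does not say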
Target sequence (P41235 whole entry, looked up): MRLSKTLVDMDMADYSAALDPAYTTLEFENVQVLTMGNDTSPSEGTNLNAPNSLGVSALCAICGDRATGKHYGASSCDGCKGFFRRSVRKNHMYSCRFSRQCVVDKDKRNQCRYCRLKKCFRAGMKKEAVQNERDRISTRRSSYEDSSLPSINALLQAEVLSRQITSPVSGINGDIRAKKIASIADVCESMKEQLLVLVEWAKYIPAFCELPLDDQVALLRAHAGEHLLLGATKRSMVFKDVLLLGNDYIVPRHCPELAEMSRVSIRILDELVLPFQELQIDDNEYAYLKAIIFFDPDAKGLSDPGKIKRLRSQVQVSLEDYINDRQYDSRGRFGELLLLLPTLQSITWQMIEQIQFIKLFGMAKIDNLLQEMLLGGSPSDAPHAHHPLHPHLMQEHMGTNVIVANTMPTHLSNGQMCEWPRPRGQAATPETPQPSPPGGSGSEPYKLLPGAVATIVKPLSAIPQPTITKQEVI
Ecoli growth: blocks Escherichia coli growth | OD600 absorbance (no concentration beside the values) | OD600, 23 h; stronger effect = lower value | 0.21% of 330,000 active;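 active means OD600 absorbance below the run mean of sample wells minus 3.6 SD, in any replicate, cut at about 0.56 in these data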;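 further: stock transfer was 300 nL into about 60 µL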
UCH37 DUB inh: human UCH37 deubiquitinating enzyme inhibition; AID 588478; 0.33% of 330,000 active; purified proteasome/UCH37, Ub-AMC cleavage fluorescence; Q9Y5K5; inhibition, % (no concentration beside the values);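 active means mean of two replicates above 20%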;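 further: 0% = compound-free wells with enzyme and 100% = wells lacking proteasome; stock transfer was 100 nL into about 20 µL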
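Signal – fluorescence, ex 355 nm, em 460 nm · System – Proteasome-bound UCH37 · Input – 0.15 nM proteasome as dispensed · Timing – 30 min preincubation with enzyme, 25 min cleavage at room temperature · Read-out basis – percent inhibition of cleavage signal versus uninhibited and no-proteasome wells · Medium – Tris-HCl pH 7.4 with ATP-MgCl2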
Vif A3G: inhibitors of Vif binding to APOBEC3G peptide, primary screen, biochemical, TR-FRET, GST-Vif 1-94, biotin-A3G peptide, dose response retest (AID 1117319). TR-FRET GST-Vif / biotin-A3G peptide binding; higher % means a stronger effect; test concentration not given here; strong numbers were not always called active. inhibition, %; hits with a dose series show IC50 in µM. 0.57% of 260,000 active;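 active means above the screen mean plus three standard deviations and confirmed in dose response; inconclusive means results disagree or hit not tested in dose response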;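 further: Vif residues 1-94 fused to GST binding biotinylated APOBEC3G peptide 110-148; 0% = full assay without inhibitor and 100% = GST in place of GST-Vif; retest series ran down from 100 µM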
RanGTP-Imp inh: inhibitors of RanGTP-importin-beta interaction, primary screen, biochemical, FRET, CFP-Ran, YFP-importin-beta, homogeneous. 1.1% of 300,000 active. inhibition, % (test concentration not listed). cell-free CFP-Ran/YFP-importin-beta FRET ratio;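 active means most replicates above 15%; inconclusive means exactly half above 15%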;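 further: 0% = DMSO wells and 100% = Ran loaded with GDP instead of GTP; wells of about 40 µL received 100 nL stock; the first replicate is given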
* marks the source's active call; other numbers are inactive results; i = inactive; u = inconclusive; x = not tested or not shown; & = joins results of further samples. These rows are one share of the data (hit frequency here may not be typical).

SMILES	FGF22 binding	MLL AF4-AF9 inh	HNF4A DNA FP	Ecoli growth	UCH37 DUB inh	Vif A3G	RanGTP-Imp inh
CCCn1cc2c(c1-c1cccc(C)c1)c(=O)n(C)c(=O)n2C	x	x	-2.5	0.75	-0.5	25.1%	-3.6
Cc1ccc(OCc2cc(C(=O)N(C)CCc3ccccn3)no2)cn1	i	-0.8	-3.4	0.706	2.2	4.8%	1.1
CCOC(=O)c1ccc(NC(=S)N(CCN2CCCCCC2)Cc2ccco2)cc1	i	0.6	-2.6	0.675	-0.5	x	-0.2
CNC(=O)C1C2C=CC3(O2)C1C(=O)N(CCOC)C3C(=O)NCc1ccc(OC)cc1 (stereo not drawn)	x	x	0.6	0.676	2.9	2.2%	2.7
Cc1ccc(C(=O)OCC(=O)Nc2ncc(Cl)cc2Cl)cc1NC(=O)c1ccco1	i	5.4	-4.9	0.764	1.5	10.6%	-0.8
CC(=O)c1ccc(NC(=O)COC(=O)CCc2ccc(S(=O)(=O)N3CCOCC3)cc2)cc1	i	-6.7	5.4	0.728	2.5	-0.4%	-0.2
Cc1cc(NC(=O)COC(=O)c2cc3c(s2)CCC(C)C3)no1 (stereo not drawn)	x	x	0.5	0.706	-0.2	-3.5%	-4.4
O=C1CCn2nc(-c3ccc(Cl)cc3)cc2N1	i	3.3	-2.6	0.767	3.6	0.8%	0.4
CCOC(=O)c1c(N)sc(C(=O)N2CCCC(C(N)=O)C2)c1C (stereo not drawn)	x	x	1.4	x	x	0.1%	1.1
Cc1ccn2cc(CSc3ccccc3N)nc2c1	x	x	-0.9	0.671	3.7	-0.9%	4.8
CC(=O)Nc1ccc(-c2ccnc3c2CC(C)(C(=O)NCc2ccc(N4CCN(C)CC4)cc2)O3)cc1 (stereo not drawn)	i	-3.9	-1.9	x	x	x	x
CCCCNC(=O)C1(C)CCCCN1C(=O)c1cc(-c2ccccc2)cs1 (stereo not drawn)	i	0.5	0.1	x	x	x	x
COc1ccc(CC(=O)Nc2ccc(C(=O)NC(C)(C)C)cc2)cc1	x	x	-2.0	0.674	4.0	-5.2%	5.1
CC(=O)N=c1c(C#N)cc2c(=O)n3cccc(C)c3nc2n1Cc1ccco1	i	-1.1	-16.1	0.662	-101.4	16.4%	80.3*
CCN(c1ccccc1)S(=O)(=O)c1ccc2[nH]cc(C(=O)N3CCOCC3)c(=O)c2c1	x	x	0.2	0.686	-3.7	u	-0.7
Cc1cc(C)c(C)c(S(=O)(=O)Nc2ccc(C(=O)N3CCCC3)cc2)c1C	i	-2.4	4.2	0.695	3.9	-1.9%	2.2
CC1C(=O)N2CCCc3cc(NC(=O)C(=O)NCCc4ccccc4)cc1c32 (stereo not drawn)	i	-1.2	-0.4	0.712	0.7	x	-5.8
Cc1ccc(S(=O)(=O)CC(=O)N2CCN(c3ccc(F)cc3)CC2)cc1	i	0.5	-3.0	x	x	x	1.1
COCCN(C(=O)Cc1cccs1)C(C(=O)NCc1ccc(OC)cc1)c1ccc(OC)cc1 (stereo not drawn)	x	x	-1.8	0.698	3.9	4.6%	6.2
O=C(COC(=O)c1ccc(Br)c(S(=O)(=O)N2CCOCC2)c1)NC1CC1	i	1.0	-3.1	0.662	5.1	5.0%	x
Cc1cccc(C)c1NC(=S)N1CCC(N(C)CC2CCCO2)CC1 (stereo not drawn)	x	x	-2.9	0.718	-0.8	18.7%	-3.7
Cc1nnc(SCC(=O)N2CCN(S(=O)(=O)c3ccccc3)CC2)s1	x	-2.9	-0.3	0.717	2.5	-8.2%	6.0
Cc1ccc(C(=O)COC(=O)C(C)N2C(=O)C3C4CCC(C4)C3C2=O)cc1 (stereo not drawn)	i	-7.5	2.9	x	x	9.4%	0.6
OC(Cn1cccn1)c1ccccc1 (stereo not drawn)	x	x	-0.5	0.721	2.4	12.4%	-1.8
O=C(/C=C/c1ccccc1)Nc1nnc(SCC(=O)c2ccc3ccccc3c2)s1	x	x	3.8	0.708	-43.6	29.1%	x
O=C(c1cccnc1)N1CCN(C(=O)c2cccc(Cl)c2)CC1	i	0.2	2.9	0.639	1.8	x	10.2
CC1(Oc2cccc(C#N)c2)CCN(Cc2ccccc2OC(F)F)C1 (stereo not drawn)	i	0.0	-0.6	x	x	x	x
Cc1ccc(C(=O)NC2CCCc3c2cnn3-c2ccc(F)cc2F)cn1 (stereo not drawn)	i	0.9	2.3	x	x	x	1.8
Cc1c(C(N)=O)sc2ncn(CC(=O)N(C)C3CCCCC3)c(=O)c12	i	-2.2	3.4	0.656	2.0	x	0.3
CC1CC(C)(C)NC(=S)N1CCCC(=O)Nc1ccc(Br)cc1 (stereo not drawn)	i	2.2	0.7	0.71	1.8	-9.5%	-5.2
O=C(NCc1ccccn1)C(=O)NCC1OCCCN1S(=O)(=O)c1cc(F)ccc1F (stereo not drawn)	i	-1.5	-0.2	0.691	0.7	x	2.9
CC1(C)CC(=O)C=C(Nc2ccc(C(=O)O)cc2)C1	x	x	0.2	0.694	13.7	-7.7%	29.0*
Nn1c(SCC(=O)NCCc2ccc(S(N)(=O)=O)cc2)nnc1C1CCCCC1	i	1.5	1.2	0.664	0.3	x	x
COc1cc(C2C(C#N)=C(N)Oc3cc(N(C)C)ccc32)cc2c1OCO2 (stereo not drawn)	x	x	55.7	0.698	0.0	6.5%&8.2%	26.9*
CCCC(C)C(=O)OCC(=O)Nc1c(Br)cc(C)cc1Br (stereo not drawn)	i	1.1	2.5	0.651	0.0	13.1%	-2.3
O=c1[nH]c2ccccc2c(O)c1-c1ccccc1[N+](=O)[O-]	i	-2.1	-0.5	0.712	5.9	0.3%	0.9
C=CC[C@@H](CC(=O)OC(C)(C)C)C(=O)OC[C@@H]1CCCN1C(=O)[C@@H](CC=C)CC(=O)N[C@@H](CO)Cc1ccccc1	i	-2.2	0.3	x	1.2	x	x
CC(=O)/C(C#N)=C1\NC(=O)C(Cc2ccc(C)c(C)c2)S1 (stereo not drawn)	x	x	1.0	0.647	9.3	32.5%	-0.7
CC1(C(=O)NCC2CCOCC2)Cc2c(-c3cccc(C(F)(F)F)c3)ccnc2O1 (stereo not drawn)	i	-1.3	2.4	x	x	x	x
O=[N+]([O-])c1cccc(N=Cc2sc3ccccc3c2O)c1	i	-2.0	x	0.689	3.6	8.6%	-0.9

Just HNF4A DNA FP, for some of the entries so far:
SMILES,HNF4A DNA FP
Cc1ccc(C(=O)COC(=O)C(C)N2C(=O)C3C4CCC(C4)C3C2=O)cc1 (stereo not drawn),2.9
Nn1c(SCC(=O)NCCc2ccc(S(N)(=O)=O)cc2)nnc1C1CCCCC1,1.2

Other results
SMILES	FGF22 binding	MLL AF4-AF9 inh	HNF4A DNA FP	Ecoli growth	UCH37 DUB inh	Vif A3G	RanGTP-Imp inh
CCS(=O)(=O)Nc1ccccc1C(N)=O	i	-0.8	1.6	0.677	-70.7	x	2.0
COc1ccc(CN2C(=O)COc3ccccc3C2c2nc3ccccc3[nH]2)cc1 (stereo not drawn)	i	1.9	-1.1	x	x	x	x
Cc1cc(C)c2[nH]c(=O)c(CN(CC3CCCO3)C(=O)c3cnccn3)cc2c1 (stereo not drawn)	x	x	0.3	0.704	0.9	25.0%	u
Cc1ccc(C)c(N(C(=O)c2csnn2)C(C(=O)NC2CCCCC2)c2ccncc2)c1 (stereo not drawn)	i	1.2	2.4	0.667	1.2	x	-1.1
Cc1ccc(C)c(SCC(=O)NCC(c2ccco2)N2CCCCC2)c1 (stereo not drawn)	i	2.1	1.4	0.697	4.2	-10.0%	-0.5
Cc1ccc(-c2sc(C(=O)NN)c(C)c2C#N)cc1	i	2.8	1.4	0.698	1.8	-0.1%	2.2
CC1=C(CC(=O)c2ccc(Cl)cc2)C(=O)c2ccccc2C1=O	x	x	3.2	0.715	2.7	5.1%	-2.7
CCOC(=O)c1[nH]c(C)c(C(=O)N2CCN(c3ccccc3)CC2)c1C	x	x	7.8	0.7	0.9	1.3%	-1.6
COc1cccc(C(C)(O)c2nc(-c3ccc4c(c3)OCO4)cs2)c1 (stereo not drawn)	i	-1.5	0.4	x	x	x	x
COc1ccc(OC)c(C2=NO[C@@H]3C(=O)N(c4cc(Cl)ccc4OC)C(=O)[C@H]23)c1	x	x	2.1	0.697	-16.9	-24.9%	0.8
Cc1cccc(NC2=C(Cl)C(=O)OC2OC(C)C)c1 (stereo not drawn)	i	-9.6	6.3	0.643	4.9	x	1.1
CS(=O)(=O)c1cnc(-c2ccccc2)nc1Oc1ccc(Cl)cc1	x	x	-0.7	0.704	3.5	7.6%	1.6
CC(C)(C)S(=O)N1Cc2cn(Cc3ccccc3)c(=O)cc2[C@@H]1CCO (stereo partly drawn)	i	1.2	1.6	0.648	-2.2	1.9%	x
Cc1ccc(S(=O)(=O)NCc2ccc(C(=O)N(C)CCC#N)cc2)cc1	x	x	2.6	0.671	4.4	4.8%	2.5
Nc1nnc(Cc2ccc(Cl)cc2Cl)s1	x	x	-1.2	0.67	2.5	-1.0%	1.6
CC(C)(CO)NC(=S)NCc1ccco1	i	1.1	-0.9	0.667	3.9	x	4.8
O=C(c1cc(-c2ccco2)on1)N1CCN(C(c2ccccc2)c2ccccc2)CC1	x	x	3.1	0.754	3.6	24.9%	-7.9
CCC1CCCCN1S(=O)(=O)c1ccc(NC(=O)C2CCN(C(=O)c3ccco3)CC2)cc1 (stereo not drawn)	i	4.0	-1.9	0.66	6.3	x	-0.5
O=S(=O)(NCCC1=CCCCC1)c1ccccc1Cl	i	-8.4	-1.7	0.685	3.1	11.4%	x
CC1(C)NC(=O)N(CC(O)CN2CCOCC2)C1=O (stereo not drawn)	x	x	-0.6	0.642	3.3	3.8%	-0.2
CC1CC(C(F)(F)F)n2ncc(C(=O)O)c2N1 (stereo not drawn)	x	x	-2.4	0.749	0.8	0.2%	-0.9
CCC1C(C#N)=C(N)OC2=C1C(=O)CC(C)(C)C2 (stereo not drawn)	x	x	4.7	0.666	1.2	-0.2%	-1.8
O=C(CCN1C(=O)/C(=C/c2ccc(Cl)cc2)SC1=S)Nc1ccc(C(=O)O)cc1	i	3.4	-2.3	0.659	4.7	-5.9%	4.0
COc1ccc(/C=C2/SC(=O)N(CCNC(=O)C3CCCN3C(=O)c3cccs3)C2=O)cc1 (stereo not drawn)	i	1.7	-1.9	0.703	4.4	-2.9%	-4.7
O=[N+]([O-])c1ccccc1/C=N/Nc1nc(N2CCCC2)nc(N2CCCC2)n1	i	0.7	3.8	x	x	6.7%	5.6
CCCC(NC(=O)Cc1c(C)c2cc3c(C)c(C)oc3c(C)c2oc1=O)C(=O)N[C@@H](Cc1ccccc1)C(=O)O (stereo partly drawn)	i	-4.4	-20.1	0.676	-24.4	x	6.7
O=C(Nc1cccc2ccccc12)c1csc([C@@H]2O[C@H](CO)[C@H](O)[C@H](O)[C@H]2O)n1	i	0.9	-1.5	x	x	x	x
Oc1ccc(/C=N/NC(=S)NCCN2CCOCC2)c(O)c1	i	-3.4	0.8	x	x	24.1%	3.0
O=C(Nc1nnc(-c2ccc(F)cc2)o1)c1ccco1	i	5.1	-0.3	0.699	7.5	x	-0.1
NC(=S)NC1CCS(=O)(=O)C1 (stereo not drawn)	i	-1.6	0.7	0.669	3.6	u	-0.2

Full records from above:
NC(=S)NC1CCS(=O)(=O)C1 (stereo not drawn) reads FGF22 binding: i; MLL AF4-AF9 inh: -1.6; HNF4A DNA FP: 0.7; Ecoli growth: 0.669; UCH37 DUB inh: 3.6; Vif A3G: u; RanGTP-Imp inh: -0.2
CCCC(NC(=O)Cc1c(C)c2cc3c(C)c(C)oc3c(C)c2oc1=O)C(=O)N[C@@H](Cc1ccccc1)C(=O)O (stereo partly drawn) reads FGF22 binding: i; MLL AF4-AF9 inh: -4.4; HNF4A DNA FP: -20.1; Ecoli growth: 0.676; UCH37 DUB inh: -24.4; Vif A3G: x; RanGTP-Imp inh: 6.7
